VACV mCherry inh: inhibitors of vaccinia virus infection (mCherry reporter signal) | 0.63% of 310,000 active | Potency, µM (series often up to 36.5 µM), for inactives: at the top dose activity change, negative = inhibition, most hits filed as inhibitors | Vaccinia virus mCherry reporter infection, fluorescence; about a quarter of the inactives have no number; active = well fitted inhibition curve with a large enough effect; inconclusive = small, poorly fitted or top-dose-only effect; inactive = no such curve, though single readings can be large or run the other way; tested in A549 cells; also: nearly all actives have a fitted effect of over 35% in size; inactives centre near -10
VACV Venus inh: inhibitors of vaccinia virus (Venus reporter) | Vaccinia virus Venus reporter expression, fluorescence | Potency, µM (doses to about 36.5 µM), for the others: at the top dose activity change, negative = inhibition, usual class: inhibitors | 0.46% of 330,000 active | AID 720580; active means well fitted inhibition curve with a large enough effect; inconclusive means small, poorly fitted or top-dose-only effect; inactive means no such curve, though single readings can be large or run the other way; tested in A549 cells; also: nearly all actives have a fitted effect of over 30% in size; inactives centre near -10
* marks the source's active call; other numbers are inactive results; i = inactive; ? = inconclusive; . = not tested or not shown; & = joins results of further samples; [ ] = remark or other dose. % is scaled to controls: 0 for no effect and ±100 for the full control effect; potency is read from the fitted curve at half-maximal effect.

SMILES | VACV mCherry inh | VACV Venus inh
CCNC(=O)CC1C(=O)N(c2ccc(F)cc2)C(=S)N1CCc1ccncc1 (configuration not stated) | -9% | 5%
O=C(Cc1coc2ccc3ccccc3c12)Nc1nccs1 | -7% | -3%
CC1CCN(C(c2ccc(N(C)C)cc2)c2nnnn2C(C)(C)C)CC1 (configuration not stated) | . | 7%
O=C(O)c1ccccc1C1=Nc2ccc(O)cc2Oc2cc(O)ccc21 | -3% | 82%[activator]
CCN1C(=O)[C@H]2[C@@H](c3ccc(C)cc3)N[C@]3(CCCN(Cc4ccc(C(F)(F)F)cc4)C3=O)[C@H]2C1=O | -16% | ?
CCCCCCCCCC(=O)NNC(=O)c1c(O)c2ccccc2n(CC)c1=O | -2% | -11%
COc1ccc(OC)c(NC(=O)CN(c2ccccc2OC)S(=O)(=O)c2ccc(C)cc2)c1 | -14% | -12%
COC(C(=O)Nc1cccc(F)c1)c1ccccc1 (configuration not stated) | -9% | 3%
O=C1Nc2cccnc2N(C(=O)CCl)c2ccccc21 | ? | ?
O=C(NCCCN1CCOCC1)c1[nH]c(C(F)(F)F)nc1-c1ccccc1 | i | 1%
CCc1ccccc1Oc1nc(NCc2ccccc2)nc2ccsc12 | -4% | -2%
Cc1ccc(CSCCNC(=O)c2ccc(C)cc2)cc1 | -15% | -14%
CCCCCCCSc1cc(OC)c(CCN(C)C)cc1OC | ? | 10µM*
Cc1[nH]c2c(Cl)cccc2c1CCN | i | -28%
O=C(NC1CCCCC1)C(c1cc2ccccc2o1)N1CCOCC1 (configuration not stated) | 11% | -3%
Cc1ccnc(NC(=O)c2ccc(S(=O)(=O)N3CCCCCC3)cc2)c1 | -23% | ?
O=[n+]1cc(-c2ccccc2)n([O-])c2c1CCC2 | -12% | -15%
CCOC(=O)c1nn(-c2ccccc2)c2nc(Nc3ccccc3)cc(=O)n12 | . | -7%
Cc1ccccc1C(OCCN(C)C)C1CCCCC1 (configuration not stated) | ? | -17%
CCc1ccccc1NC(=S)N(CCN(C)C)C(C)c1cccnc1 (configuration not stated) | 2% | -6%
Nc1nc(NCc2ccccc2Cl)c2[nH]cnc2n1 | -24% | -24%
CCc1ccc(CN2C(=O)c3ccccc3C2C(=O)NCc2cccnc2)cc1 (configuration not stated) | i | 3%
CC(=O)/C(N=Nc1cccc(C(F)(F)F)c1)=C(\C)O | -17% | 0%
O=C(Nc1ccc(Br)cc1)C(Cc1ccccc1)NS(=O)(=O)c1cccc2nsnc12 (configuration not stated) | ? | -23%
O=C(CSc1nc2nc3c(cc2c(=O)n1-c1ccccc1)CCCC3)Nc1ccccc1 | -8% | -5%
O=C(Oc1ccc(N(Cc2cccs2)C2=NS(=O)(=O)c3ccccc32)cc1)c1ccccc1Cl | -12% | -9%
CCCCCN(C(=O)CCC(=O)OCc1cccc(C)c1)c1c(N)n(CCCC)c(=O)[nH]c1=O | -12% | -18%
CCCCC(CC)CNC(=O)C(=O)c1ccccc1NC(C)=O (configuration not stated) | -12% | -6%
COc1ccc(/C=N/NC(=O)C(C)n2cnc3ccccc3c2=O)cc1 (configuration not stated) | -4% | 2%
CCCNC(=O)c1ccccc1NC(=O)COc1ccc(OC)cc1 | -4% | -17%
COc1ccc(CNC(=O)CCN2C(=O)c3ccncc3C2=O)cc1OC | i | 4%
COc1cccc(-c2nc(N3CC(C)CC(C)C3)c3ccccc3n2)c1O (configuration not stated) | -17% | -8%
C=CCN1C(=O)C(CC(=O)Nc2ccccc2)N(Cc2ccccn2)C1=S (configuration not stated) | i | -2%
O=P(NCc1ccccc1)(OCc1ccccc1)OCc1ccccc1 | i | -5%
COc1ccccc1OCC(=O)Nc1ccc(N2CCOCC2)cc1N1CCOCC1 | -18% | -2%
CC1(C)Oc2ccc3ccc(=O)oc3c2C[C@H]1O | i | -7%
O=C(CSCc1nc2c(nnn2Cc2ccc(F)cc2)c(=O)[nH]1)Nc1cccc(C(F)(F)F)c1 | -1% | -11%
CC(=O)Nc1ccc(S(=O)(=O)Nc2nc3ccccc3s2)cc1 | -4% | -11%
CC(=O)c1cc(-c2ccc(F)cc2)n(CC(=O)NCc2cccs2)c1C | . | -9%
CC1(C(=O)NS(=O)(=O)c2ccc(Cl)cc2)CCN1C(=O)Cc1ccc(Cl)cc1Cl (configuration not stated) | 2% | -5%
NC(=O)Cc1ccc(C(=O)c2ccccc2)s1 | i | -8%
CCC1CCCCN1CCCNC(=O)c1ccc2c(c1)sc1nc(-c3ccc(F)cc3)cn12 (configuration not stated) | ? | ?
CCCCC[C@H](O)/C=C/[C@@H]1[C@@H](CCCCCCC(=O)O)[C@@H](O)C[C@H]1O | i | -11%
O=C(NCc1ccccc1Cl)c1ccc2c(c1)N(Cc1ccccc1)CCS2 | -11% | -1%
CCCCN(C(=O)Cn1nnc2ccccc21)C(C(=O)NCCOC)c1ccc(OC)cc1OC (configuration not stated) | -7% | -8%
Cc1ccc(C)c(CN2C(=O)c3ccccc3S(=O)(=O)c3ccc(C(=O)N4CCCC4)cc32)c1 | -14% | -15%
CCN(CC)C(=O)c1cccc(-c2csc(C(O)c3cccc(OC)c3)n2)c1 (configuration not stated) | i | -15%
CCn1c(=O)c2[nH]c(SC)nc2n(CC)c1=O | -15% | -10%
CCCOc1cccc(NC(=O)OC2CCN(C)CC2)c1 | i | 6%
COc1cc(OC)cc(C(=O)Nc2cccc(-c3cn4ccsc4n3)c2)c1 | -8% | -3%
CC1CC(C)CN(C(=O)/C=C/c2ccc(S(=O)(=O)N3CCOCC3)cc2)C1 (configuration not stated) | i | -5%
COc1cc(-c2nc3ccccn3c2/N=C/c2cccc(OC)c2O)ccc1O | ? | -11%
O=C(Nc1ncc(Cc2cc(Cl)ccc2Cl)s1)c1ccc([N+](=O)[O-])cc1 | -3% | -3%
CC(NCc1ccc(OCc2ccc(Cl)cc2)cc1)C(O)c1ccccc1 (configuration not stated) | ? | ?
COc1ccc(S(=O)(=O)N2CCN(Cc3c[nH]c4ccccc34)CC2)cc1 | . | -24%
Nc1c2c(nc3ccn(-c4ccccc4)c(=O)c13)CCCCC2 | -11%[1.46 µM] | -12%
CC(=O)NC(c1cccc(F)c1)c1nc(-c2ccc(N(C)C)cc2)cs1 (configuration not stated) | -8% | -4%
Cc1cs/c(=N\N=C\c2ccc(O)cc2)n1Cc1ccco1 | -21% | -20%
CCCCC[C@@H]1C=C(C(=O)O)[C@H](c2ccc(OC)c(OC)c2)N1S(=O)(=O)c1ccc(C)cc1 | -1% | -2%
O=c1[nH][nH]c2c1[C@@H](c1ccc(F)cc1)O[C@H](CCOCc1ccccc1)C2 | i | -7%

4 entries from above, field by field:
> CCN(CC)C(=O)c1cccc(-c2csc(C(O)c3cccc(OC)c3)n2)c1 (configuration not stated)
  VACV mCherry inh = i
  VACV Venus inh = -15%

> Cc1ccc(C)c(CN2C(=O)c3ccccc3S(=O)(=O)c3ccc(C(=O)N4CCCC4)cc32)c1
  VACV mCherry inh = -14%
  VACV Venus inh = -15%

> O=C(Nc1ncc(Cc2cc(Cl)ccc2Cl)s1)c1ccc([N+](=O)[O-])cc1
  VACV mCherry inh = -3%
  VACV Venus inh = -3%

> Nc1c2c(nc3ccn(-c4ccccc4)c(=O)c13)CCCCC2
  VACV mCherry inh = -11%[1.46 µM]
  VACV Venus inh = -12%

Later entries:
SMILES | VACV mCherry inh | VACV Venus inh
O=C(c1ccc(COc2ccccc2Cl)o1)N1CCOCC1 | -20% | -15%
CCOC(=O)C1=CCN(S(=O)(=O)c2ccccc2C)C1c1cccc(F)c1 (configuration not stated) | 11% | 0%
Cc1ccc(C(=O)CSc2ncnc3sc4c(c23)CCCC4)cc1 | -17% | -5%
C=CCNC(=O)/C(=C/c1cccc([N+](=O)[O-])c1)NC(=O)c1ccco1 | -8% | -15%
CN(CCC#N)c1ccc(C=O)cc1 | -2% | -12%
Cc1cc(Cl)ccc1NS(=O)(=O)c1c(C(=O)N2CCCCCC2)c(C)n(C)c1C | -17% | -16%
COC(=O)c1cc(NC(=O)Cc2ccccc2[N+](=O)[O-])cc(C(=O)OC)c1 | -15% | -1%
COC(=O)c1ccc(NC(=O)c2nc(-c3ccc(Cl)cc3)n3c2CCCCC3)cc1 | -25% | -22%
Cn1c(=O)oc2cc(S(=O)(=O)NCCN3CCN(c4ccccc4)CC3)ccc21 | ? | -2%
CCc1c(C(=O)N/N=C/c2cccs2)nnn1-c1nonc1N | -4% | -5%
OC[C@H]1O[C@H](OCc2ccccc2)[C@H](O[C@@H]2OC[C@@H](O)[C@H](O)[C@H]2O)[C@@H](O)[C@@H]1O | 0% | 7%
CCSc1nc(CC)c2c(c1C#N)CCCC2 | -11% | -23%
Cn1c(=O)[nH]c(=O)c2c1nc(N1CCCC1)n2CCCSc1nc2ccccc2o1 | -17% | -12%
COc1ccccc1-c1c(C)nn2c(C)cc(C)nc12 | i | -12%
O=C(NNC(=S)NC1CCCCC1)c1ccccc1Cl | i | -11%
COc1ccc(CCN2C(=O)c3[nH]nc(-c4ccccc4O)c3C2c2ccc(C)cc2)cc1OC (configuration not stated) | ? | ?
Cc1cccc(NC(=O)CCS(=O)(=O)c2ccc3c(c2)oc(=O)n3C)c1 | i | -20%
COc1ccc(NC(=O)CN(C)C(=O)C(NC(=O)c2ccco2)C(C)C)cc1 (configuration not stated) | -10% | -5%
CN(C)c1ccc(C(=O)C=Cc2ccc([N+](=O)[O-])cc2)cc1 | ? | -23%
CN(C)/C=C/C(=O)C(Cl)(Cl)Cl | i | -2%

The last 2 entries of the part before lead into the next.
SMILES | VACV mCherry inh | VACV Venus inh
CN(C)c1ccc(C(=O)C=Cc2ccc([N+](=O)[O-])cc2)cc1 | ? | -23%
CN(C)/C=C/C(=O)C(Cl)(Cl)Cl | i | -2%
Cc1nn(-c2ccccc2)c(N2CCCC2)c1/C=N/NC(=O)c1cc(-c2ccccc2)nc2ccccc12 | -15% | 3%
O=C(CCCn1c(=O)[nH]c2ccccc2c1=O)NCc1ccccc1Cl | -14% | -7%
O=c1[nH][nH]c2c1[C@H](c1ccc(Cl)cc1)O[C@H](C1CCCC1)C2 | 14% | -11%
CCOC(=O)[C@]12CCC=C1N(Cc1ccccc1)C(=O)[C@H](CC(=O)NCc1cccs1)C2 | i | 1%
Cc1ccc(N2C(=O)CC(N3CCN(C4CCc5ccccc5C4)CC3)C2=O)cc1 (configuration not stated) | -20%[1.46 µM] | -6%
Cc1cc(C)nc(Sc2c(C)n[nH]c2C)n1 | -13% | -10%
O=C(NCc1cccc(F)c1)C1=Cc2cc(Br)ccc2OC1 | -5% | -13%
O=C(c1ccc(CNS(=O)(=O)c2ccccc2)cc1)N1CCC2(CC1)OCCO2 | i | -13%
CC(C)OCCCNC(=O)Cn1ccc2cc(S(=O)(=O)N3CCCCCC3)ccc21 | -19% | -13%
CCc1ccc(NP(=O)(Oc2ccccc2F)Oc2ccccc2F)cc1 | -11% | -20%
COc1cc(C(=O)NC(=S)Nc2ccc([N+](=O)[O-])cc2C)cc(OC)c1OC | i | -1%
N#C/C(=C(/O)c1ccc([N+](=O)[O-])cc1)c1nnc2n1CCCCC2 | -10% | -3%
Cc1cc(C)cc(NC(=O)CSCc2cc(=O)c3ccc(C)c(C)c3[nH]2)c1 | 8% | 5%
O=C(N[C@@H](Cc1ccccc1)C(=O)O)c1cccs1 | i | -5%
O=c1c2cc3c(nc2[nH]c(=S)n1-c1ccccc1)CCCC3 | i | -1%
Cc1ccc(NC(=O)CCn2cccn2)cc1Cl | -10% | -8%
CN1C(C(=O)Nc2ccc(OC(F)(F)F)cc2)=CC(c2ccc3c(c2)OCO3)=NS1(=O)=O | -11%&-8% | -12%&-6%
CCC(C)(C)n1nnnc1C(c1cc2cc(C)cc(C)c2[nH]c1=O)N1CCN(C(=O)c2ccco2)CC1 (configuration not stated) | i | -14%
COc1cccc(-c2cc(C(=O)NCc3ccccc3)no2)c1 | -11% | -8%
CC(C)(C)n1nnnc1C(c1cccnc1)N(Cc1ccccc1)Cc1cccs1 (configuration not stated) | -31% | -19%

The list goes on, overlapping the part above by 3 compounds.
SMILES | VACV mCherry inh | VACV Venus inh
CCC(C)(C)n1nnnc1C(c1cc2cc(C)cc(C)c2[nH]c1=O)N1CCN(C(=O)c2ccco2)CC1 (configuration not stated) | i | -14%
COc1cccc(-c2cc(C(=O)NCc3ccccc3)no2)c1 | -11% | -8%
CC(C)(C)n1nnnc1C(c1cccnc1)N(Cc1ccccc1)Cc1cccs1 (configuration not stated) | -31% | -19%
CCOC(=O)c1c(-c2ccc(C)cc2)csc1NC(=O)c1ccc(N2C(=O)CCC2=O)cc1 | -10% | -7%
CCn1c(/C=C/c2c(C)n(CC)c3ccccc23)nc2ccccc2c1=O | i | -9%
COc1ccccc1-c1n[nH]c(=S)n1-c1ccccc1 | -5% | -2%
Cc1[nH]c(C)c(S(=O)(=O)N(Cc2ccccc2)C(C)C)c1C(=O)N1CCCC1 | -11%[7.34 µM] | -8%[7.34 µM]
COC(=O)C1=C(c2c(C)noc2C)C[C@@H]2CC[C@H]1N2C(=O)NC1CCCCC1 | i | -3%
O=C(Cc1cnc2ncnn2c1)N1CCc2c([nH]c3ccccc23)C1c1ccccn1 (configuration not stated) | i | -11%
Cc1cnc(C(=O)N2CCCC(C(=O)c3ccc(Cl)cc3C)C2)cn1 (configuration not stated) | -12% | -14%

Screening results from PubChem BioAssay.

The order is random, and some 0.86% of all compounds hit somewhere here.
